Source: PubChem
RGS16-Gao HTS: modulators of RGS16 binding to Galphao, primary screen, biochemical, human proteins, multiplexed bead flow cytometry. bead-based flow cytometry RGS16-Galphao binding, fluorescence; actives lie on both sides. binding response (% of control), % at 10 µM. Regulator of G-protein signaling 16 (Homo sapiens) + Guanine nucleotide-binding protein …. actives 0.38% (n = 220,000). AID 1441, 2008;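 active = below 25% or above 175%, edge rows of some plates excepted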;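 also: Galphao activated by GDP with aluminum fluoride before binding; 100% = wells without compound and 0% = beads without RGS; some results beyond the cut were filed as inactive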
Target sequence (O15492 whole entry, looked up): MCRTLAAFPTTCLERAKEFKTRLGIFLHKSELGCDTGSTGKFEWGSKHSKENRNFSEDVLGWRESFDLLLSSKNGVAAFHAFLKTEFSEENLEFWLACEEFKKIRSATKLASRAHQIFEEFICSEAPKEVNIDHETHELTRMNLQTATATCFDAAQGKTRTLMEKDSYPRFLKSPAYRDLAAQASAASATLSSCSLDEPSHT
Target sequence (P09471 whole entry, looked up): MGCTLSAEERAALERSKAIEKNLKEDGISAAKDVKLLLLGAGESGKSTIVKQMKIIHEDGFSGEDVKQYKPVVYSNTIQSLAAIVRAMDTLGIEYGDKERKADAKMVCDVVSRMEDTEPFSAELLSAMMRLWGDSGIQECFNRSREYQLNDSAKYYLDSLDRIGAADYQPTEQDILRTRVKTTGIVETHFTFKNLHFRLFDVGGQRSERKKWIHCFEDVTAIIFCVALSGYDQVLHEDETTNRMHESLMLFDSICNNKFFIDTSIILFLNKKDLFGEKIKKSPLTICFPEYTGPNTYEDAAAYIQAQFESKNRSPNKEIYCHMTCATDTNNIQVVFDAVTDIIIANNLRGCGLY
GALR2 agonist: GALR2 receptor agonists, primary screen, cell-based; AID 803, 2007; activation, %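 (tested at 5 µM)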; GALR2-expressing cells, agonist activation read-out; actives 0.48% (n = 140,000);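 active = above mean plus 3 SD of all compounds, about 5% in these data, not always enough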;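 also: 0% = vehicle buffer wells and 100% = reference agonist at full effect; tested in CHO reporter cells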
Target sequence (O43603 whole entry, looked up): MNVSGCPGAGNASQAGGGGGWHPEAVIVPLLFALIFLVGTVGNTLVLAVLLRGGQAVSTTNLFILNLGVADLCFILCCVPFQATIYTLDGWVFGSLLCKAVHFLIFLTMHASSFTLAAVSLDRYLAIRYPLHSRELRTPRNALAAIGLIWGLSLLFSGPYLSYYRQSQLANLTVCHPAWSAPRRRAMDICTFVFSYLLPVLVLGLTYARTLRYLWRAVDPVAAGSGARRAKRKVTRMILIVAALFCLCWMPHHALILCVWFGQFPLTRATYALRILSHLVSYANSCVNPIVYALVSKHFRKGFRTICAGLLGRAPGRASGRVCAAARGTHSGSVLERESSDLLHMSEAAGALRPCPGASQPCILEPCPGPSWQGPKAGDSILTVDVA
HSV replic up: enhancers of HSV replication in host cells, fold increase, host cell viability. HSV replication augmentation in cells. maximum fold increase. actives 0.005% (n = 220,000);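 active = peak rise of 1.5-fold or more in the series; inconclusive = self-fluorescent or not available for retest; tested in PC3 cells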;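 also: first round at 10 µM; read as green reporter fluorescence; hits show the peak of a series up to 25 µM; 1 = signal of infected wells without compound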
PKD1 inh: inhibitors of human PKD1 kinase, biochemical, fluorescence polarization. PKD1 kinase fluorescence polarization assay. inhibition, %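 (about 10 µM by stock and volumes)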. actives 0.056% (n = 200,000);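 active = inhibition of 50% or more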;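 also: controls were vehicle for no effect and a reference inhibitor for full effect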
INS promoter inh: inhibitors of insulin promoter-driven GFP, primary screen, imaging, TRM-6 cells (human fetal islet line), eGFP reporter, cell count. reporter expression induced with tamoxifen. inhibition, % at 2 µM. actives 0.9% (n = 130,000). AID 1273, 2008;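 active = inhibition above the mean plus 3 SD, with well images judged a real hit on visual review, cut at about 60% in these data, passing the limit was not always enough; inconclusive = inhibition over the cutoff but images rejected on review; inactive = inhibition not above the cutoff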
INS promoter inh cell count: second read-out of INS promoter inh, no call of its own (marks repeat the call); normalized cell count, %; measured here: cell count, toxicity; reference of the scale not given here;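 cells exposed to compound for 48 h; stained nuclei by imaging scaled within each plate; lower means fewer cells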
HSV replic up primary fold: second read-out of HSV replic up, no call of its own (marks repeat the call); fold increase; compound at 10 µM; measured here: primary screen fold increase 10 uM; tested in PC3 cells;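 GFP signal in the first replicate; 1 = infected wells without compound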
An asterisk follows results filed as active; i = inactive; ? = inconclusive; . = no result given. An unsorted share of the library; any-hit rate near 1.3%.

| compound | RGS16-Gao HTS | GALR2 agonist | HSV replic up | HSV replic up primary fold | PKD1 inh | INS promoter inh | INS promoter inh cell count |
| --- | --- | --- | --- | --- | --- | --- | --- |
| CCCn1nc2cc(C(=O)NCC34CC5CC(CC(C5)C3)C4)ccc2c1OCC | 94 | -1.9 | i | 0.81 | -10 | . | . |
| CC1(C)CC(=O)c2cnc(NC(=O)Cc3ccc(Cl)cc3)nc2C1 | 302 | -2.5 | i | 0.86 | 0 | -150 | 93 |
| Nc1nc2n(n1)C1(CCCCC1)C1=C(CCCC1)N2 | 99 | 0.4 | i | 1 | -3 | . | . |
| OCCC1CN(Cc2cccn2-c2cccnc2)CCN1C1CCCC1 (stereo unspecified) | 97 | . | i | 1 | . | . | . |
| Cc1ccnc(NC(=O)c2cc(S(=O)(=O)N3CCCCC3)ccc2Cl)c1 | 110 | -0.8 | i | 1.1 | 3 | -6 | 127 |
| CC(C)(C)Cc1nnc(NS(=O)(=O)Cc2ccccc2)s1 | 101 | -1.8 | i | 0.74 | 8 | 6 | 82 |
| O=C(NCC(=O)N(CC1CCCO1)C(C(=O)NC1CCCCC1)c1ccccc1)c1cccs1 (stereo unspecified) | 106 | -0.9 | i | 0.87 | 10 | -77 | 107 |
| CC(=O)c1ccc(-n2nncc2C(C)(C)C)cc1 | 90 | 0.6 | i | 0.99 | -1 | . | . |
| C=CCOc1c(Cl)cc(CNc2nccs2)cc1OC | 104 | . | i | 0.82 | -7 | -6 | 85 |
| Cc1cc(=O)[nH]c(SCC(=O)NC(C)C2CC3CCC2C3)c1C#N (stereo unspecified) | 103 | . | i | 0.91 | 1 | -39 | 131 |
| CCn1c(SCC(=O)Nc2nc(-c3ccccc3)cs2)nnc1-c1ccccc1 | 101 | -0.7 | i | 0.93 | -8 | . | . |
| CC(/C=C1\SC(=S)N(CCCC(=O)Nc2ccc(C(=O)O)cc2)C1=O)=C\c1ccccc1 | 101 | -1.5 | i | 0.86 | -9 | 0 | 137 |
| Cc1ccc(S(=O)(=O)N2CCCCC2)cc1C(=O)N1CCN(c2ccccn2)CC1 | 104 | . | i | 0.91 | 1 | . | . |
| Cc1cc(C)c2c(n1)sc1c(N3CCN(C)CC3)ncnc12 | 97 | . | i | 0.6 | . | . | . |
| O=C(c1cnn2c(C(F)(F)F)cc(-c3cccs3)nc12)N1CCN(Cc2ccccc2)CC1 | 105 | 0.7 | i | 0.88 | -5 | 40 | 114 |
| O=c1c(C(c2ccc(Br)cc2)c2c(O)nc3n(c2=O)CCS3)c(O)nc2n1CCS2 | 88 | . | i | 1 | . | . | . |
| COC(=O)c1sccc1NC(=O)CC1NCCNC1=O (stereo unspecified) | 82 | . | i | 0.96 | . | . | . |
| CCCCCc1ccc(OCCCC[n+]2ccccc2)c(CCCCC)c1 | 101 | . | i | 0.66 | -1 | -38 | 66 |
| O=C(c1ccc([N+](=O)[O-])cc1)N1CCC(Cc2ccccc2)CC1 | 98 | . | i | 0.95 | -7 | 43 | 140 |
| COCc1cc(C)nc(SCC[N+](C)(C)CC(=O)c2ccc(Br)cc2)c1C#N | 108 | . | i | 1 | -4 | 12 | 97 |
| Cc1c(Cl)cccc1NC(=S)NCCC(c1ccccc1)c1ccccc1 | 106 | -0.9 | ? | . | -5 | -6 | 73 |
| COc1ccc(-n2nnnc2SCC(=O)N2CCN(C(=O)c3ccco3)CC2)cc1OC | 98 | . | i | 0.89 | -4 | . | . |
| Cc1ccc(S(=O)(=O)c2c(C)cc(C)nc2N2CCOCC2)cc1 | 100 | . | i | 1.2 | 5 | 0 | 115 |
| O=c1oc2cc(OCc3ccc(F)cc3F)ccc2cc1-c1ccccn1 | 106 | -2.0 | i | 0.8 | -3 | 29 | 111 |
| CC(C)(C)N1CC(c2nc3ccccc3n2Cc2ccc(F)cc2)CC1=O (stereo unspecified) | 72 | -0.6 | i | 0.97 | -1 | -80 | 127 |

The last four entries of the section before are carried over, then new ones follow:
| compound | RGS16-Gao HTS | GALR2 agonist | HSV replic up | HSV replic up primary fold | PKD1 inh | INS promoter inh | INS promoter inh cell count |
| --- | --- | --- | --- | --- | --- | --- | --- |
| COc1ccc(-n2nnnc2SCC(=O)N2CCN(C(=O)c3ccco3)CC2)cc1OC | 98 | . | i | 0.89 | -4 | . | . |
| Cc1ccc(S(=O)(=O)c2c(C)cc(C)nc2N2CCOCC2)cc1 | 100 | . | i | 1.2 | 5 | 0 | 115 |
| O=c1oc2cc(OCc3ccc(F)cc3F)ccc2cc1-c1ccccn1 | 106 | -2.0 | i | 0.8 | -3 | 29 | 111 |
| CC(C)(C)N1CC(c2nc3ccccc3n2Cc2ccc(F)cc2)CC1=O (stereo unspecified) | 72 | -0.6 | i | 0.97 | -1 | -80 | 127 |
| Cc1cccc2nc(CSc3nnc(N)s3)cn12 | 101 | . | i | 1.2 | 0 | . | . |
| CCN(CC)C(=O)C1CCCc2c1[nH]c1ccc(Cl)cc21 (stereo unspecified) | . | -2.5 | i | 0.84 | 0 | . | . |
| Nc1[nH]c(N=NC(=O)c2ccccc2O)c2ccccc12 | 59 | -0.6 | . | . | 0 | i | 38 |
| CCOC(=O)C1CN(S(=O)(=O)c2ccc(OC)cc2)c2cc(S(=O)(=O)CC)ccc2O1 (stereo unspecified) | 105 | -0.1 | i | 0.93 | 3 | -18 | 63 |
| Cc1cc(C)n(-c2cc(-n3nc(C)cc3C)ncn2)n1 | 107 | -0.5 | i | 0.88 | -4 | 4 | 107 |
| CC(=O)NC(Cc1ccccc1C)C(=O)NC1CCN(c2ncccc2[N+](=O)[O-])CC1 (stereo unspecified) | 97 | -0.1 | i | 0.94 | -4 | . | . |
| Cc1ccc(OCCNC(=O)c2cccc(Oc3ccc(C(F)(F)F)cc3[N+](=O)[O-])c2)cc1 | 98 | -0.8 | i | 0.93 | 8 | . | . |
| O=C(CSc1nnc(SCc2cccc3ccccc23)s1)N=Nc1c(O)[nH]c2ccccc12 | 101 | -0.2 | i | 1 | -1 | . | . |
| CCOC(=O)Nc1ccc(C(=O)Oc2ccccc2)c(O)c1 | 101 | -0.6 | i | 0.84 | 2 | 17 | 64 |
| CC(C)(C)c1ccc(C(=O)Nc2cnccn2)cc1 | 107 | -1.1 | i | 0.91 | -2 | 25 | 47 |
| O=C(O)C1Nc2c(C(=O)N3CCOCC3)cccc2C2C=CCC12 (stereo unspecified) | 89 | 0.8 | i | 1.1 | 5 | 7 | 126 |
| COc1ccc(CC(=O)c2cc(OC)c(OC)cc2CC(=O)O)cc1OC | 94 | -1.9 | i | 0.9 | 14 | 32 | 111 |
| COc1ccccc1NC(=O)NC(=O)N(C(C)C)S(C)(=O)=O | 52 | -2.0 | i | 0.92 | 1 | 38 | 184 |
| C1=Nc2c(Nc3ccccc3)ncnc2Oc2ccccc21 | 81 | -2.6 | i | 1.1 | -10 | . | . |
| O=C(O)C1CC1C(=O)Nc1cc(F)ccc1F (stereo unspecified) | 101 | . | i | 1.1 | -6 | . | . |
| Cc1ccc(N2C(=O)CS(=O)C(c3ccccc3)C2=O)cc1C (stereo unspecified) | 64 | . | i | 1.1 | -5 | -10 | 124 |
| CN(c1ccccc1)S(=O)(=O)c1cc(C(=O)OCC(=O)N2CCN(C(=O)c3ccco3)CC2)ccc1Cl | 102 | . | i | 0.98 | -6 | . | . |
| COc1cc(CC(=O)O)ccc1O | 115 | . | i | 0.71 | . | . | . |
| CCOC(=O)N1CCC(NC(=O)C2CCCN(c3nc4ccccc4o3)C2)CC1 (stereo unspecified) | 108 | 0.0 | i | 0.68 | 0 | -77 | 43 |
| OCC(Cc1ccccc1)Nc1c2ccccc2nc2ccccc12 (stereo unspecified) | 103 | -0.1 | i | 0.56 | -8 | . | . |
| C=C(C)CC1N(c2cccc(OC)c2)C(=O)C2C(C(=O)O)C3C=CC21O3 (stereo unspecified) | 99 | -3.5 | i | 1.1 | -6 | . | . |
| CN(C)S(=O)(=O)c1cccc(N2C(=O)CC3(CCCCC3)CC2=O)c1 | 99 | . | i | 1 | 0 | . | . |
| COc1ccc(C(=O)NC(=S)Nc2cccc3nc(C)ccc23)cc1OC | 108 | . | i | 0.93 | . | . | . |
| CCOC(=O)N1CCC(Nc2nc3ccccc3n3cnnc23)CC1 | . | -0.2 | i | 0.86 | -7 | . | . |
| COc1ccccc1C(=O)NNC(=O)c1nn(Cc2ccccc2)c(=O)c2ccccc12 | 105 | . | i | 1.1 | -4 | 80* | 56* |

New compounds follow:
| compound | RGS16-Gao HTS | GALR2 agonist | HSV replic up | HSV replic up primary fold | PKD1 inh | INS promoter inh | INS promoter inh cell count |
| --- | --- | --- | --- | --- | --- | --- | --- |
| O=C(COC(=O)CCSc1ccc(Cl)cc1)NCc1ccc(Cl)cc1 | 103 | 0.1 | i | 0.98 | -8 | . | . |
| CCCCN1CC(O)=C(c2nc(-c3ccc(Cl)cc3)cs2)C1=N | 102 | 2.1 | i | 1 | -3 | -4 | 59 |
| O=C1CNC(=S)N1c1nc(-c2ccccc2)cs1 | 102 | 0.3 | i | 0.92 | -2 | -23 | 139 |
| CS(=O)(=O)N(CC(=O)Nc1ccc(C(N)=O)cc1)C1CCCCC1 | 101 | -1.1 | i | 0.71 | -3 | 10 | 207 |
| Cc1ccc(/C=C2\SC(=S)N(c3c(C)n(C)n(-c4ccccc4)c3=O)C2=O)cc1 | 93 | -1.4 | i | 0.86 | -2 | . | . |
| CN(C(=O)Nc1ccccc1)n1cnc2ccccc2c1=O | 106 | . | i | 1.1 | . | . | . |
| COC(=O)\C(C(C)=O)=C(/C=C/C=C/C=C/N(C)C)N(C)C | 87 | -2.2 | i | 1.2 | -6 | -2 | 91 |
| C=C(C)C1CC=C(C)/C(=N/NC(=O)c2cccs2)C1 (stereo unspecified) | 112 | -0.9 | i | 0.94 | -8 | 10 | 94 |
| CCN/N=C(\Cc1nc2ccccc2[nH]1)c1ccccc1 | 102 | . | i | 1.1 | -5 | . | . |
| Cc1sc2nc(SCc3nc(-c4ccccc4)no3)n(-c3ccccc3)c(=O)c2c1C | . | -0.5 | i | 1 | -5 | . | . |
| CS(=O)(=O)n1nc(-c2ccc(Cl)cc2)nc1SCc1ccccc1 | 103 | -2.2 | i | 0.9 | 0 | 7 | 35 |
| S=C(NCCc1ccccn1)Nc1cccc(Cl)c1 | 144 | -0.2 | i | 0.87 | -11 | 26 | 101 |
| O=C(CCCOc1ccc(Cl)cc1Cl)Nc1ccc(O)cc1C(=O)O | 96 | . | i | 1 | . | . | . |
| Cn1c(=O)c2[nH]c(SCC(=O)c3ccc(F)cc3)nc2n(C)c1=O | 98 | . | i | 0.98 | . | . | . |
| CC(=O)c1c(OCC(=O)O)ccc2c(C)cc(=O)oc12 | 94 | -0.8 | i | 0.92 | 0 | 11 | 72 |
| COc1ccc2c(OC)c3ccoc3nc2c1OC | 101 | . | i | 1 | 3 | . | . |
| COc1ccc(Nc2nc(N)nc(CN3CCc4ccccc4C3)n2)cc1 | 110 | -1.8 | i | 0.72 | -3 | . | . |
| COc1ccc(/C=N/NC(=O)CSCc2ccc([N+](=O)[O-])cc2)cc1OC | 97 | -0.5 | i | 0.96 | -10 | -90 | 89 |
| Cc1ccccc1C(=O)O/N=C1\CCS(=O)(=O)c2sccc21 | 107 | -1.1 | i | 0.81 | -12 | 45 | 73 |
| C=CCN1C(=O)/C(=C\c2cc(Br)c(OCc3ccccn3)c(OC)c2)SC1=S | 98 | . | i | 1 | 2 | . | . |
| COc1cccc(Cn2c(=O)c3[nH]cnc3n(-c3ccccc3C)c2=O)c1 | 105 | . | i | 0.89 | . | . | . |
| Cc1nnc(SCC(=O)Nc2ncc(Cc3ccc(F)cc3)s2)n1N | 87 | -2.0 | i | 1 | -3 | -48 | 103 |
| CCOC(=O)c1c(C)oc2cc(Br)c(OC)cc12 | 98 | -1.1 | i | 0.74 | -4 | . | . |

Just RGS16-Gao HTS, INS promoter inh cell count and PKD1 inh, for some of the entries so far:
Structure	RGS16-Gao HTS	INS promoter inh cell count	PKD1 inh
O=C1CNC(=S)N1c1nc(-c2ccccc2)cs1	102	139	-2
CS(=O)(=O)N(CC(=O)Nc1ccc(C(N)=O)cc1)C1CCCCC1	101	207	-3
Cc1ccc(/C=C2\SC(=S)N(c3c(C)n(C)n(-c4ccccc4)c3=O)C2=O)cc1	93	.	-2
CN(C(=O)Nc1ccccc1)n1cnc2ccccc2c1=O	106	.	.
COC(=O)\C(C(C)=O)=C(/C=C/C=C/C=C/N(C)C)N(C)C	87	91	-6
C=C(C)C1CC=C(C)/C(=N/NC(=O)c2cccs2)C1 (stereo unspecified)	112	94	-8
CCN/N=C(\Cc1nc2ccccc2[nH]1)c1ccccc1	102	.	-5
